Bioassay records deposited in PubChem BioAssay by ICCB-Longwood Screening Facility, Harvard Medical School.
AID504770 – E. coli YBA685 growth inhibition, screen for V. cholerae RctB inhibitors; E. coli YBA685 rctB-dependent plasmid, OD600 growth, 3 h; stronger effect = lower value; z-score (no concentration beside the values); hit rate 0.27% among 130,000; AID 504770;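 active = z-score under -2 on both plates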;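 note: wells of about 30 µL received 100 nL stock; score is relative to mean and SD of the test wells; the first replicate is given; strong numbers were not always called active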
CapD inh – CapD enzyme inhibition; AID 492967; purified CapD enzyme, fluorescence intensity read-out; stronger effect = lower value; some hits fall short of the stated cut; z-score (concentration not given with the values); hit rate 0.23% among 140,000;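 active = z-score under -4 in either of two replicates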;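 note: stock transfer was 100 nL into about 40 µL; score is relative to mean and spread of the plate; one replicate is shown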
* hit, by the source's call; . = no result given.

The opening three entries, ahead of the listing:
SMILES | AID504770 | CapD inh
O=c1c(COCc2ccccc2)cc2cccc3c2n1CCC3 | . | 7
COC(=O)C1C(c2ccccc2)C(C(=O)OCc2ccco2)C1c1ccccc1 (stereo not given) | -0.4 | .
COc1ccc(C2C(C(=O)OCC3CCCO3)=C(C)NC3=C2C(=O)CC(c2cccs2)C3)c(OC)c1OC (stereo not given) | . | 13

The listing, previewed entries included:
SMILES | AID504770 | CapD inh
O=c1c(COCc2ccccc2)cc2cccc3c2n1CCC3 | . | 7
COC(=O)C1C(c2ccccc2)C(C(=O)OCc2ccco2)C1c1ccccc1 (stereo not given) | -0.4 | .
COc1ccc(C2C(C(=O)OCC3CCCO3)=C(C)NC3=C2C(=O)CC(c2cccs2)C3)c(OC)c1OC (stereo not given) | . | 13
CCC(=O)c1cn(CC(=O)NCCOc2ccc(Cl)cc2)c2ccccc12 | 0.95 | 0.41
CCc1ccc(CNC(=O)CCn2c(=O)oc3ccccc32)cc1 | 2.2 | -0.54
O=C(NC1CCCCCC1)c1cccc(N2CCCC2=O)c1 | 0.3 | 45
COc1cc(/C=C2/SC(=S)N(CCC(=O)NC3=NCCS3)C2=O)cc(OC)c1OC | . | 0.32
CCCC1(C(=O)OCC)NC(c2ccc(N(C)C)cc2)C2C(=O)N(c3ccc(OCC)cc3)C(=O)C21 (stereo not given) | -0.75 | .
CSc1ccc(C2CC(=O)N3CN(C)CSC3=C2C#N)cc1 (stereo not given) | 0.75 | -1.1
O=c1cccc(-c2ccccc2)[nH]1 | -0.45 | .
O=C(CCCCCn1c(=S)[nH]c2ccc(Br)cc2c1=O)NC1CCN(Cc2ccccc2)CC1 | . | -0.51
CCOC(=O)c1cc2n(c1C)-c1ccccc1C2=O | -0.4 | 0.44
COc1ccc(N(C)C(=S)Nc2ccc3nc(-c4ccco4)c(-c4ccco4)nc3c2)cc1 | 0.6 | -3.2
CN(C)/N=C/c1ccc(OC(=O)c2ccco2)cc1 | 1.2 | .
COc1ccc(/C=C2\S/C(=N\n3cnnc3)N(c3ccccc3)C2=O)cc1 | . | -0.52
O=C(CSc1nc2ccccc2s1)n1c2ccccc2c2ccccc21 | -0.5 | -1.2
CCOC(=O)/C(N=Nc1cc(Cl)cc(Cl)c1)=C(\C)O | . | 0.13
COc1cc(O)c(/C=N/NC(=O)c2ccccc2CCc2ccccc2)c(OC)c1 | . | -0.8
CC(C)CC1NC(=O)N(CCCCN2C(=O)c3ccccc3C2=O)C1=O (stereo not given) | -0.05 | .
CC(C)CN(CC(C)C)C(=O)C1c2ccccc2Oc2ccccc21 | 0.8 | -0.7
CC(C)(C)C1CCc2c(sc3c2C(=O)NC(c2cc(Br)cc(Br)c2O)N3)C1 (stereo not given) | . | -1.3
[O-][n+]1c2c(nn1-c1ccccc1)CCc1ccccc1-2 | -0.6 | .
O=C(CCC(=O)N1CCC(c2ccccc2)=N1)N1CCN(c2ccccc2)CC1 | 1 | .
NC(=O)NN=C1c2cc(S(=O)(=O)NCCO)ccc2-c2ccc(S(=O)(=O)NCCO)cc21 | -0.55 | -0.43
Cn1c(C(=O)NCc2cccs2)cc2c(=O)[nH]c3ccccc3c21 | -0.65 | -0.32
CCC1CCCCN1C(=O)Cn1c(=O)n(Cc2ccccc2)c(=O)c2c3c(sc21)CCC3 (stereo not given) | -0.25 | -0.45
O=C(Oc1ccc(-c2csnn2)cc1)c1cc(C(F)(F)F)cc(C(F)(F)F)c1 | -0.2 | -0.54
CC(C)/C=c1/[nH]c(=O)/c(=C/c2ccccc2)[nH]c1=O | -0.35 | -0.31
N#C/C(C(=O)Nc1ccc(Cl)cc1)=C1/SCC(=O)N1c1ccccc1 | -0.25 | -0.22
CC(C)Cn1c(-c2cccs2)nc2ccccc21 | 0.25 | 86
COc1ccc(-n2c(=S)[nH]c3cc(C(=O)NCc4ccc5c(c4)OCO5)ccc3c2=O)c(OC)c1 | . | -0.4
CC(C)c1nc2ccc(Cl)cc2c2c1C(=O)N(NC(=O)c1ccco1)C2=O | . | 0.33
COC(=O)c1cn(CC(=O)Nc2ccc(OC)cc2)c2ccccc12 | 0.9 | .
CSc1ccccc1-c1nnc(SCc2ccc(C(C)(C)C)cc2)o1 | . | 4
COCC1=C(C(=O)OC)C2(C(=O)Nc3ccccc32)C(C(=O)OCc2ccccc2)=C(N)O1 (stereo not given) | . | -0.075
CC(=O)N(CCOc1ccccc1)CCOc1ccccc1 | -0.25 | 0.35
Nc1nc2sc3c(c2cc1C(=O)NCC(=O)O)CCCC3 | 0.9 | -0.58
CCn1c(=O)cc(OCC(=O)N2CCCC2)c2ccccc21 | -0.5 | 0.7
CCC1CCCCN1C(=O)CSc1nnc(CNC(=O)c2ccco2)o1 (stereo not given) | -0.2 | -0.025
CC(C(=O)N1CCCC1)N1CCN(c2ccc(F)cc2)CC1 (stereo not given) | -0.05 | .
C=CCC(NC(C)c1ccco1)c1ccccc1 (stereo not given) | 0.3 | .
COc1cc2c(cc1OC)C1=NC(=O)CN1C(SCc1cccc(C)c1)=N2 | . | 4.3
O=C(Nc1ccccc1)c1ccn(C(=O)c2ccccc2)n1 | -1 | -0.15
CCCn1c(=NC(=O)c2cccs2)sc2cc(S(C)(=O)=O)ccc21 | -0.3 | .
COc1ccc(C(=O)OCC(=O)c2cc3c4c(c2)CC(=O)N4CCC3)cc1Br | 1.9 | .
O=C(c1sccc1Oc1ccc(F)cc1[N+](=O)[O-])N1CCOCC1 | . | -0.71
CCN(CCN1C(=O)CCC1=O)c1cccc(NC(C)=O)c1 | 0.65 | 0.39
CCCN1Cc2cccc(C(=O)NC3CCCCCC3)c2C1=O | -0.3 | -0.4
C=CCN1C(=O)c2oc3ccccc3c(=O)c2C12C(=O)N(C)c1ccccc12 (stereo not given) | 0.4 | -0.36
O=C(c1cc2nc(-c3ccc4c(c3)OCO4)cc(C(F)(F)F)n2n1)N1CCCCCC1 | . | 0.28
Cc1ccn2c(=O)c(NC(=O)C3CCCCC3)c(C)nc2c1 | -1.1 | .
CCOC(=O)/C(C#N)=C1\C(=O)Nc2ccccc21 | 0.15 | .
O=C(NCCc1ccc(Cl)cc1)c1ccc2nccnc2c1 | 0.65 | 0.77
O=C(NCCS(=O)(=O)Cc1ccc(F)cc1)c1cccc(OC(F)(F)F)c1 | 0 | 0.1
COC(=O)Cn1c2ccccc2c2nc(=O)cc(C)n21 | 0.6 | 3.6
Cc1ccc2[nH]c3c(c2c1)CCCC3NC1CCCCC1 (stereo not given) | -0.75 | -0.46

(further entries)
SMILES | AID504770 | CapD inh
O=C1S/C(=C\c2ccccc2)C(=O)N1CN1CCOCC1 | -0.4 | .
S=C1NCN(Cc2ccncc2)CN1 | -0.25 | -0.61
CC(C)c1ccccc1NC(=O)C1CCCCC1 | -0.9 | 0.28
COc1cc(C2CC(=O)Nc3c2ccc2ccccc32)ccc1OCCO (stereo not given) | . | 1.4
CCc1c(C)nc(SCC(=O)Nc2ccc(Br)cc2)c(C#N)c1C | . | -0.12
O=C(c1ccc(Cl)cc1)c1oc2ccccc2c1CBr | . | -1.4
CC1=C2CCC3C(CC[C@]4(C)C(=O)CCC34)[C@@]2(C)CCC1=O (stereo not given in full) | 0.15 | .
CC1CCCCN1CCNC(=O)C1c2ccccc2C(=O)N(C2CCCC2)C1c1cccs1 (stereo not given) | 1.7 | -0.3
CCN(CC)c1ccc2cc(-c3c(O)c4ccccc4[nH]c3=O)c(=O)oc2c1 | -0.1 | 0.61
Cc1cc2ncc(-c3ccnc(SCc4c(Cl)cccc4Cl)n3)c(C)n2n1 | 2 | 10
CN(CCCN1c2ccccc2CCc2ccccc21)C(=O)OCCCCCCl | . | -0.44
CC1=Nc2ccc(C)cc2N(Cc2ccccc2)C(=O)C1 | 0.85 | 0.045
O=C(/C=C/c1cccs1)Oc1c(Cl)cccc1Cl | . | -0.86
CCCCn1c(CCc2ccc(S(=O)(=O)N3CCOCC3)cc2)nc2cc(S(N)(=O)=O)ccc21 | -0.3 | .
Cc1ccc(S(=O)(=O)c2cnc(SCC(=O)N3CCCc4ccccc43)[nH]c2=O)cc1 | -0.45 | -0.55
CCCCC1=NN(C(=O)c2ccc([N+](=O)[O-])cc2)C(O)(C(F)(F)F)C1 (stereo not given) | . | -0.24
CCn1c(C(F)(F)F)nc2ccccc21 | 0.1 | 0.05
COc1ccc(/C=c2/sc3nc(=O)c(Cc4ccccc4)nn3c2=O)cc1OC | . | 2.2
O=c1ccc(-c2ccc(S(=O)(=O)NCCC3=CCCCC3)s2)n[nH]1 | -0.55 | 1.8
CCOC(=O)C1CCCN(C(=O)c2csc(-c3ccc4c(c3)CCO4)n2)C1 (stereo not given) | -0.45 | 2.2
CN(C)c1cccc(NC(=O)c2ccncc2)c1 | 1.1 | -0.095
Cc1ccccc1NC(=O)c1c[nH]c2ccccc2c1=O | -0.15 | -1.3
Cc1noc(C)c1CSCC(=O)Nc1nccs1 | 0.4 | .
Cc1oncc1C(=S)Nc1ccccc1 | 0.35 | .

Ordered by SMILES length (highest first): some entries from above.
SMILES | AID504770 | CapD inh
CCC1CCCCN1C(=O)Cn1c(=O)n(Cc2ccccc2)c(=O)c2c3c(sc21)CCC3 (stereo not given) | -0.25 | -0.45
CC(C)c1nc2ccc(Cl)cc2c2c1C(=O)N(NC(=O)c1ccco1)C2=O | . | 0.33
O=c1ccc(-c2ccc(S(=O)(=O)NCCC3=CCCCC3)s2)n[nH]1 | -0.55 | 1.8
CCC1CCCCN1C(=O)CSc1nnc(CNC(=O)c2ccco2)o1 (stereo not given) | -0.2 | -0.025
CC(=O)N(CCOc1ccccc1)CCOc1ccccc1 | -0.25 | 0.35
CC(C)Cn1c(-c2cccs2)nc2ccccc21 | 0.25 | 86

New compounds follow.
SMILES | AID504770 | CapD inh
CCN(CC)C(=O)c1scc2c1OCCO2 | -0.8 | -0.23
Cn1c(=NC(=O)CSCC(=O)N2CCCC2)sc2cc(Br)ccc21 | -0.9 | .
CCCSc1nc2c(c(-c3ccco3)c1C#N)CCCC2 | 1.4 | 0.49
CCOC(=O)C1=CC2(SC=C(C(=O)OCC)S2)C2=C(S1)C(C)(C)N(C(=O)Cc1ccccc1)c1ccc(OCC)cc12 (stereo not given) | . | -0.57
C/C(=N\OC(=O)Nc1ccc(C)cc1)c1sc(-c2ccc(Cl)cc2)nc1C | . | -0.19
CCOC(=O)COc1ccc(/C=C2\C(=O)NC(=O)N(c3ccc(OC)cc3)C2=O)cc1OC | . | 0.59
O=C(N=Nc1c(O)[nH]c2ccc(Br)cc12)c1ccco1 | . | -1.6
CC(Nc1nc(N2CCNCC2)nc2ccccc12)c1ccccc1 (stereo not given) | -0.65 | 1.1
COC(=O)c1cc(-c2ccccc2)c(N2CCCC2)s1 | 0.15 | 3
C=CCn1c(=O)c2ccccc2n2c(SCC(N)=O)nnc12 | -0.25 | .
COC(=O)CNC(=O)c1ccco1 | -1.5 | .
COc1ccc(N(Cc2nc3ccccc3o2)S(=O)(=O)c2cc(C)ccc2C)cc1 | 1.1 | .
c1ccc(CNC2CCCC2)nc1 | -1.1 | .
O=C(COC(=O)c1ccccc1Cl)NC1CCCC1 | -0.55 | .
COc1cc(NC(=O)c2cc3nc(-c4ccccc4)cc(C(F)(F)F)n3n2)cc(OC)c1OC | . | -0.24
C=CCOc1ccccc1CN1CCCCC1 | 0.3 | 0.63
COC(=O)c1ccc(COC(=O)C23CC4CC(CC(O)(C4)C2)C3)o1 | -1.6 | .
COc1ccc(C(=O)Cc2ccc(OC)c(OC)c2)c(OC)c1 | 1.4 | 1.5
O=C(O)c1cccc(-c2cc3ccccc3oc2=O)c1 | -1.6 | 76
N#Cc1ccc(OC(=O)Cc2coc3cc4c(cc23)CCC4)cc1 | -0.2 | .
Cc1cccc(NC(=O)OC2CN3CCC2CC3)c1 (stereo not given) | 0.45 | 0.095
Fc1ccc(-c2[nH]ncc2/C=N\Nc2ccnc3cc(Cl)ccc23)cc1 | . | 30
COC(=O)c1cnn2c(C(F)(F)F)cc(-c3ccccc3)nc12 | 0.05 | .
O=C(Nn1cnc2c(cnn2-c2ccccc2)c1=O)c1ccccc1 | 0.3 | .
O=C1C2C3c4ccccc4C(CO)(c4ccccc43)C2C(=O)N1c1ccc(Cl)cc1Cl (stereo not given) | . | 0.065
Cc1ccc(NC(=O)CN2C(=O)CC(c3ccccc3)C2=O)cc1C (stereo not given) | -0.4 | .
COc1ccc(-c2nnc(SCCN3C(=O)c4ccccc4C3=O)o2)cc1 | 2 | .
Cc1cccc(C)c1NC(=O)CCCn1c(C)c2cnn(-c3ccccc3)c(=O)c2c1C | -0.55 | -0.47
CNC(=O)C(C)n1c2ccccc2c2nc(=O)cc(C)n21 (stereo not given) | -0.1 | 0.68
COC(=O)c1cc(=O)n2c(sc3ccccc32)c1C#N | -0.6 | 1.7
CCOC(=O)/C(C#N)=C1\SCC(=O)N1c1ccc(OC)cc1 | 0.1 | .
COc1cc(C(=O)Nc2ccc(-c3nnc4n3CCCCC4)cc2)cc(OC)c1OC | 0.05 | 0.01
CC(CC#N)C(=O)c1ccc(Cl)cc1 (stereo not given) | -0.5 | 0
CS(=O)(=O)c1ccc(CN(Cc2cccc(C(F)(F)F)c2)C(=O)c2cccs2)cc1 | . | -0.43
COc1ccc2c(c1)CCc1c(C(=O)Nc3cc(C)n(Cc4ccc(Cl)cc4)n3)noc1-2 | -0.35 | -0.02
Cc1ccccc1NC(=O)Cn1c(=O)n(CCCS(=O)(=O)C2CCCCC2)c(=O)c2ccccc21 | -0.1 | -0.41
O=C(CSc1nc2sc3c(c2c(=O)[nH]1)CCCC3)NCc1ccccc1 | . | 0.77
O=C(c1ccc(S(=O)(=O)N2CCCCC2)cc1)n1cnc2ccccc21 | -0.5 | -0.17
CCC(C)OC(=O)C(C)Oc1ccc2c3c(c(=O)oc2c1)CCC3 (stereo not given) | 1.8 | -1.5
N#CC1=C(N)N=C(SCC(=O)Nc2nccs2)C(C(N)=O)C12CCCCC2 (stereo not given) | -0.9 | .
